# Bioassay records: PubChem, National Center for Advancing Translational Sciences (NCATS)
# 2A StopGo: FMDV 2A StopGo reporter, luciferase signal; human cells with a luciferase reporter of 2A StopGo recoding; control for the full effect not named in the record; Potency, µM (top dose mostly 57.9 µM), for inactives: at the top dose signal change, negative = less light; hit rate 1.2% among 410,000; active = well fitted falling curve with a large enough effect; inconclusive = small, poorly fitted or top-dose-only effect; inactive = no such curve, though single readings can be large or run the other way; tested in HEK293T cells; note: % is set by controls: 0 for no effect and ±100 for the full control effect; nearly all actives have a fitted effect of over 45% in size; luciferase light after 4 h
# Cruzain inh Det: cruzain (T. cruzi) inhibition with detergent. purified cruzain, Z-FR-AMC fluorescence, 0.01% Triton. AID 1478. hit rate 0.43% among 200,000. P25779. Potency, µM, without a hit: max response, negative = inhibition, actives largely listed as inhibitors;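 note: plate controls were neutral wells for no effect and buffer without enzyme for full effect; nearly all actives have a fitted effect of over 40% in size; top concentration of the series not given in the record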
# Target sequence (P25779 123-467 limits assumed): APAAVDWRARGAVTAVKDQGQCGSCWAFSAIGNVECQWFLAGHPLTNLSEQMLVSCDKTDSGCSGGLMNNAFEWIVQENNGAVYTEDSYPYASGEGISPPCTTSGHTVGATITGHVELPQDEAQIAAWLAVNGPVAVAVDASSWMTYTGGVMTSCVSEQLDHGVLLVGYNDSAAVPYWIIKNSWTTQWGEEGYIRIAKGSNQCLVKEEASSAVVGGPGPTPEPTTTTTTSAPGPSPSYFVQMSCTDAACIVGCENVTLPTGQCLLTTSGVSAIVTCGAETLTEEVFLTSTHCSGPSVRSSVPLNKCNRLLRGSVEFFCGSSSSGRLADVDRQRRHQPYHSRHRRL
#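 15 min RT preincubation of 1.5 nM cruzain with compound, then 2 uM Z-FR-AMC added; kinetic AMC fluorescence, 60 s delta. Triton X-100 0.01%, pH 5.5.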
# RE007 growth inh: less growth of the S. pombe RE007 Vpr strain. Potency, µM (highest dose often 92.2 µM), without a hit: at the top dose activity change, negative = less growth. hit rate 0.21% among 360,000. S. pombe RE007 Vpr strain, BacTiter-Glo ATP luminescence, 24 h; control for the full effect not named in the record. AID 651644; active = well fitted falling curve with a large enough effect; inconclusive = small, poorly fitted or top-dose-only effect; inactive = no such curve, though single readings can be large or run the other way;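 note: % is set by controls: 0 for no effect and ±100 for the full control effect; nearly all actives have a fitted effect of over 50% in size; the assay follows cell death caused by Vpr and the record does not say whether a fall means rescue or toxicity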
#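 Fission yeast strain RE007, carrying one chromosomally integrated HIV-1 vpr copy, was seeded at OD 0.01 in PMG+AL medium with 23 nL pinned compound. After 24 h at 30 °C and 99% humidity, viability was read by BacTiter-Glo luminescence.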
# Cruzain inh noDet: blocks cruzain activity in detergent-free assay. AID 1476. P25779. Potency, µM, for the others: max response, negative = inhibition, actives largely listed as inhibitors. hit rate 2.3% among 200,000. purified cruzain, Z-FR-AMC fluorescence, no detergent;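 note: plate controls were enzyme without inhibitor for no effect and buffer without enzyme for full effect; nearly all actives have a fitted effect of over 40% in size; top concentration of the series not given in the record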
#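 Purified cruzain at 1.5 nM, pre-incubated 15 min with compound at room temperature in 100 mM sodium acetate pH 5.5, 5 mM DTT, 0.00005% Triton X-100. Reaction started with 2 uM Z-FR-AMC; AMC fluorescence increase over 60 s gives rate.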
# NS1 function inh: influenza NS1 inhibition. S. cerevisiae slowed by influenza A NS1, growth recovery by OD600. Potency, µM (top dose mostly 46.1 µM), without a hit: at the highest dose activity, positive = more growth. hit rate 0.4% among 270,000; active means well fitted rising curve with a large enough effect; inconclusive means small, poorly fitted or top-dose-only effect; inactive means no such curve, though single readings can be large or run the other way; note: nearly all actives have a fitted effect of over 50% in size
#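 Read-out: OD600 growth recovery of NS1-expressing budding yeast. Cells grown overnight at 30C in -URA glucose medium, washed, resuspended and diluted 1:100 in 2% galactose assay medium, pH 6.0. Same strain lacking NS1 served as positive control.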
# Lassa entry inh: blocks Lassa virus binding to or entry into cells; Lassa virus pseudotype entry inhibition, cell reporter; control for the full effect not named in the record; Potency, µM (doses to about 37.9 µM), without a hit: top-dose activity change, negative = inhibition, usual class: inhibitors; hit rate 1.2% among 300,000; active means well fitted inhibition curve with a large enough effect; inconclusive means small, poorly fitted or top-dose-only effect, or effect the other way; inactive means flat fitted curve, though single readings scatter; tested in HEK293 cells; note: % is set by controls: 0 for no effect and ±100 for the full control effect; nearly all actives have a fitted effect of over 50% in size; luciferase read-out
# Marburg entry inh: Marburg virus entry inhibition. hit rate 1.8% among 300,000. Potency, µM (titrated, usually from 37.8 µM), inactives show top-dose activity change, negative = inhibition, actives largely listed as inhibitors. Marburg virus pseudotyped entry inhibition, cell reporter; control for the full effect not named in the record; about a third of the inactives were read at about 46 µM; active = well fitted inhibition curve with a large enough effect; inconclusive = small, poorly fitted or top-dose-only effect, or effect the other way; inactive = flat fitted curve, though single readings scatter; tested in HEK293 cells; about a fifth of its hits are not listed in these tables; note: % is set by controls: 0 for no effect and ±100 for the full control effect; luciferase read-out
# SARS PLP yeast: blocks SARS-CoV papain-like protease in a yeast assay; S. cerevisiae expressing SARS-CoV PLpro, growth rescue; control for the full effect not named in the record; Potency, µM (top dose mostly 32.9 µM), for the others: at the highest dose activity, positive = growth rescue; hit rate 0.19% among 330,000; AID 485353; active means well fitted rising curve with a large enough effect; inconclusive means small, poorly fitted or top-dose-only effect; inactive means no such curve, though single readings can be large or run the other way; note: 0% is about no effect; nearly all actives have a fitted effect of over 55% in size; growth read by luminescence after 48 h
# The depositor's hits bear a star; ? = inconclusive; nt = not tested or not shown; & = joins results of further samples; [ ] = remark or other dose. Unless noted, calls come from the whole dose curve; as a rule, active = well fitted curve in the direction sought with a large enough effect; inconclusive = small, poorly fitted or top-dose-only effect, or another doubt; inactive = no such curve, though single readings can be large; an effect the other way counts as inactive or inconclusive. Potency is the fitted concentration of half-maximal effect.
SMILES,2A StopGo,Cruzain inh Det,RE007 growth inh,Cruzain inh noDet,NS1 function inh,Lassa entry inh,Marburg entry inh,SARS PLP yeast
O/C(=C\Sc1nnc(Cc2ccccc2)o1)c1ccc(Br)cc1,nt,-2.5%,14%,-7%,6%,-17%,1%&0%,-10%
CCN1CCN(c2ccc(S(=O)(=O)N3CCOCC3)cc2NC(=O)CCC(C)C)CC1,-18%,nt,20%,nt,nt,17%,-6%[46.1 µM],-6%
Cc1ccc(CN2C(=O)CCC2C(=O)NCCCN2CCCCC2C)cc1 (stereo not drawn),-6%,4.1%,-10%,-2%,2%,14%,-10%,5%
CN(C1CCCCC1)S(=O)(=O)c1cccc2nsnc12,-6%,nt,-1%,nt,-8%,nt,nt,-1%
CCCCN(C(=O)c1ccc(Cl)cc1)C1CC2CCC(C1)N2C (stereo not drawn),-2%,1.3%,-6%,-3%,1%,?,?,6%
CCOC(=O)c1ccc(-c2ccc(C=O)o2)cc1,-2%,nt,-22%,nt,-86%,?,-22%,0%
O=C(CN1CCN(C(=O)N2CCCCC2)CC1)Nc1ccc(F)cc1,nt,-1.6%,-2%,4%,-1%,2%,-4%,4%
NS(=O)(=O)c1ccc(-n2nncc2C23CC4CC(CC(C4)C2)C3)cc1,nt,-2.8%,7%,1%,-8%,-24%,-31%,-4%
Cc1nonc1OCCCNc1ccc([N+](=O)[O-])cc1Cl,36%[activator],nt,9%,nt,nt,5%,13%[46.1 µM],0%
CN(Cc1nccn1C)C(=O)c1cc(COc2cccc(C(F)(F)F)c2)on1,19%,nt,-6%,nt,2%,nt,nt,-2%
C=C(C)c1cccc(C(C)(C)NC(=O)N2CCC(C(N)=O)CC2)c1,0%,nt,7%,nt,nt,-20%,0%[46.1 µM],0%
CSCCC(NC(=O)c1ccccc1)C(=O)OCC(=O)N(C)CCC#N (stereo not drawn),-8%,nt,1%,nt,nt,-3%,15%,0%
CC(=O)c1c[nH]c(C(=O)NC2CCCCCC2)c1,9%,nt,-5%,nt,1%,12%[46.1 µM],17%[46.1 µM],-3%
CCc1nnc(NC(=O)CC(=O)Nc2ccccc2C(=O)O)s1,-15%,7.4%,-11%,9%,?,-28%,?,-5%
O=C(NCCC1CCCCN1S(=O)(=O)c1ccc(F)cc1)C(=O)NCc1ccccn1 (stereo not drawn),-4%,nt,2%,nt,nt,2%,8%,-1%
Cc1cc(C(=O)NC(C)c2ccncc2)cs1 (stereo not drawn),11%,3.4%,-3%,3%,3%,7%,10%,0%
CCCN(CC(=O)Nc1ccccc1C)C(=O)COc1c(Cl)cccc1Cl,-2%,nt,5%,nt,nt,-11%,-19%,0%
CC(CCc1ccccc1)NC(=O)COC(=O)c1cccnc1Cl (stereo not drawn),16%,nt,8%,nt,nt,?,6%,-2%
O=C(COC(=O)CCC1CCCC1)Nc1ccc(F)cc1,-13%,nt,15%,nt,nt,13%,-23%,-3%
CN(C)c1cccc2c(/C=N/O)ccc(N(C)C)c12,-21%,nt,-19%,nt,nt,-4%[46.1 µM],2%[46.1 µM],0%
CCOc1ccc(CNC(=O)c2oc3c(c2C)-c2nn(Cc4cccc(Cl)c4)cc2CC3)cc1,-24%,-3.5%,nt,10%,nt,0%[46.1 µM],nt,nt
O=C(Nc1ccccc1)c1cc([N+](=O)[O-])ccc1NCc1cccnc1,-11%,-4.6%,-18%,-7%,-21%,nt,nt,19%
O=C(COC(=O)c1cc[n+]([O-])cc1)Nc1ccc(SC(F)F)cc1,28%,nt,37%,nt,-40%,22%,8%[46.1 µM],-1%
COC(=O)CCCC(=O)N1CCC(n2nccc2NC(=O)CCOc2ccccc2)CC1,27%,nt,1%,nt,-3%,11%,20%,0%
Cc1cc(C)c(S(=O)(=O)Nc2ccnc(-c3cccnc3)n2)c(C)c1,32%,nt,4%,nt,2%,15%[46.1 µM],-7%[46.1 µM],0%
Cc1ccccc1NC(=O)c1cc(-c2ccco2)nc2ccccc12,-25%,nt,1%,nt,nt,?,?,nt
CC(C)(O)C(=O)Nc1ccc([N+](=O)[O-])c(C(F)(F)F)c1,?,3.3%,4%,-8%,nt,nt,nt,-13%
Cc1ccc(CNc2nc(N)c([N+](=O)[O-])c(Nc3cccc(F)c3)n2)cc1,-5%,-0.6%,-10%[3.69 µM],20µM*,0%,-2%,?,-9%
O=C(CSc1nnc(CNc2ccc(F)cc2)o1)N1CCCc2ccccc21,-16%,-0.2%,5%,14%,-16%,11%,-5%,0%
Cc1cc(-c2ccc(C)c(S(=O)(=O)N3CCC(C)CC3)c2)on1,-19%,-4.6%,nt,21%,nt,?,nt,nt
Nc1nc(SCc2nc3scc(-c4ccccc4)c3c(=O)[nH]2)n[nH]1,?,-0.2%,-4%,5%,8%,4%,-14%,-8%
N#C/C(=N\Nc1c(Cl)cccc1Cl)C(=O)NN,35%[activator],-3.6%,-5%,-4%,4%,1%,36%,-1%
CCOC(=O)c1c(-c2ccccc2)oc2ccc(O)c(CN3CCOCC3)c12,0%,-2.7%,-9%,8%,-6%[9.22 µM],?,?,-3%
Cc1ccc(NC(=O)c2ccc(NCCCN3CCC(C)CC3)c([N+](=O)[O-])c2)c(C)c1,4%,nt,?,nt,-3%,nt,nt,-2%
COc1cc(NC(=O)COc2cc(C)cc3oc(=O)c(C)c(C)c23)cc(OC)c1OC,-13%,nt,-2%,nt,14%,nt,nt,-1%
O=[n+]1c2c(n([O-])c3c1CCC3)CCCC2,-16%,1.5%,3%,-7%,3%,11%,-14%,-1%
COc1ccc(C2CC(c3cccc(F)c3)=NN2c2ccc(S(N)(=O)=O)cc2)cc1 (stereo not drawn),?,nt,-2%,nt,nt,nt,0%,3%
CCCc1c(C)nc2ccccc2c1SCCC#N,-28%,-1.4%,-1%,-3%,-33%,3%,-11%,-14%
O=C(CSc1oc(-c2ccccc2)nc1S(=O)(=O)c1ccc(Br)cc1)NC1CCCCC1,?,-5.6%,nt,-2%,nt,10%[46.1 µM],?,nt
O=C(/C=C/c1ccco1)N(Cc1ccccc1)C1CCS(=O)(=O)C1 (stereo not drawn),2%,nt,-13%,nt,6%,-8%,-6%[46.1 µM],0%
Cc1cc(=O)n2[nH]c(C)cc2n1,6%,nt,20%,nt,nt,9%,1%[46.1 µM],-1%
CN(C)c1cccc2c(C#N)ccc(N(C)C)c12,1%,nt,-10%,nt,nt,-3%,8%[46.1 µM],0%
S=C1NC(c2cccs2)=CC(c2ccc(Br)cc2)N1 (stereo not drawn),-9%,-7.8%,-3%,?,17%,0%,?,-17%
COCCc1nn2c(=O)cc(COC(=O)c3ccco3)nc2s1,5%,-1.7%,nt,-8%,nt,-4%[46.1 µM],nt,nt
O=C(COC(=O)C1CC(=O)N(Cc2ccccc2)C1)c1ccc(Br)cc1 (stereo not drawn),-22%,-1.4%,3%,9%,-18%,8%,3%,10%
O=C(c1ccc(Cl)cc1)C1CCCN(C2CCSCC2)C1 (stereo not drawn),-9%,nt,9%,nt,-1%,-10%[46.1 µM],?,-1%
CN(C)C(=O)N1CCC(C(=O)NCc2ccccc2Cl)CC1,nt,-6.6%,3%,-1%,0%,14%,3%,4%
CCn1c(SCC(=O)N/N=C/C=C\c2ccco2)nc2ccccc21,6%,-10.0%,-5%,-7%,24%,?,?,11%
CC1CCCCN1S(=O)(=O)c1ccc(N(C(=O)c2cnccn2)C(C(=O)NC2CCCC2)c2cccs2)cc1 (stereo not drawn),-23%,-1.4%,5%,24%,-6%,?,-26%,4%
CCN1CCN(CC(=O)Nc2ccc(C(C)=O)cc2)CC1,0%,nt,1%,nt,10%,23%[46.1 µM],-9%[46.1 µM],2%
CC(=O)c1ccc(OC(C)C)c(CC(C(N)=O)C(N)=O)c1,-10%,-0.6%,6%,2%,-3%,4%,?,4%
O=C(O)c1ccccc1C(=O)c1ccc2c(c1)N(Cc1ccc(Cl)c(Cl)c1)C(=O)CO2,?,nt,-19%,nt,-10%,-21%,?,0%
CC1CC(C)CN(C(=O)CSCC(=O)Nc2nc(-c3cccs3)cs2)C1 (stereo not drawn),-20%,-5.4%,1%,-28%,-47%,nt,nt,2%
O=C1c2ccccc2C(=O)N1CCC1=CCCCC1,29%,-2.4%,0%,-2%,-6%,21%,10%,-3%
CN(C)c1ccc(C(=O)C(=O)c2ccccc2)cc1,69%[activator],nt,6%,nt,-5%,nt,nt,-3%
Cc1csc(SCC(=O)NC(=O)NCc2ccccc2)n1,6%,-0.5%,2%,-8%,-5%,1%,25%,1%
O=[N+]([O-])c1ccc(Sc2n[nH]c(-c3ccc(Cl)cc3Cl)n2)nc1,-29%,0.7%,-8%,-22%,-6%,1%,-5%[46.1 µM],-10%
O=C(Nc1ccccc1C(F)(F)F)c1ncoc1-c1ccco1,?,-7.7%,nt,-6%,nt,17%[46.1 µM],nt,nt
CN(C)S(=O)(=O)NCc1ccc2c(c1)OCO2,11%,5.0%,-17%,-4%,?,-3%,2%,1%
O=C(CN1C2=NCCN2c2ccccc21)c1ccc(Br)cc1,-29%,-2.2%,-13%,10%,1%,-29%,?,-3%

# Carrying on.
SMILES,2A StopGo,Cruzain inh Det,RE007 growth inh,Cruzain inh noDet,NS1 function inh,Lassa entry inh,Marburg entry inh,SARS PLP yeast
NC(=O)C1CCN(C(=O)CSc2nc3ccccc3o2)CC1,19%,2.1%,3%,0%,13%,14%,20%,2%
Cc1ccc(N/C=C/C(=O)c2sc(-c3ccccc3)nc2C)cc1,-7%,3.6%,6%,0%,2%,?,-29%,0%
O=C(CSc1nnc(NC(=O)c2c(F)cccc2F)s1)Nc1ccccc1F,42%[activator],nt,-17%,nt,-2%,2%,-13%[46.1 µM],-1%
CC(=O)c1ccc(NC(=O)CC2Sc3ccccc3NC2=O)cc1 (stereo not drawn),-1%,-9.7%,nt,-5%,nt,-5%[46.1 µM],?,nt
COc1cccc(C(=O)Nc2ccc3nc(SCC(=O)N(C)c4ccccc4)sc3c2)c1,?,-6.4%,nt,-7%,nt,?,?,nt
COc1ccc(C2CC(c3cccc(OC)c3OC)n3nnnc3N2)cc1 (stereo not drawn),17%,-0.1%,17%,-3%,-12%,-2%,2%,-2%
